Vaccinia mCherry – vaccinia inhibition (mCherry reporter). Potency, µM (titrated, usually from 36.5 µM), for the others: at the highest dose activity change, negative = inhibition, actives largely listed as inhibitors. hit rate 0.63% among 310,000. AID 720579. Vaccinia virus mCherry reporter infection, fluorescence; about a quarter of the inactives have no number; active = well fitted inhibition curve with a large enough effect; inconclusive = small, poorly fitted or top-dose-only effect; inactive = no such curve, though single readings can be large or run the other way; tested in A549 cells; note: nearly all actives have a fitted effect of over 35% in size; inactives centre near -10
Vaccinia Venus – inhibitors of vaccinia virus (Venus reporter) | Vaccinia virus Venus reporter expression, fluorescence | Potency, µM (doses to about 36.5 µM), without a hit: top-dose activity change, negative = inhibition, actives largely listed as inhibitors | hit rate 0.46% among 330,000 | AID 720580; active means well fitted inhibition curve with a large enough effect; inconclusive means small, poorly fitted or top-dose-only effect; inactive means no such curve, though single readings can be large or run the other way; tested in A549 cells; note: nearly all actives have a fitted effect of over 30% in size; inactives centre near -10
Starred values were filed as active, the others as inactive; i = inactive; ? = inconclusive; · = no result given; & = joins results of further samples; [ ] = remark or other dose. % is set by controls: 0 for no effect and ±100 for the full control effect; potency is the fitted concentration of half-maximal effect.

SMILES	Vaccinia mCherry	Vaccinia Venus
COc1ccc(N2CCN(C(=O)[C@H](C)N3C(=O)C4CC=CCC4C3=O)CC2)cc1 (stereo partly drawn)	?	-15.5%
O=C(NC(NNc1ccc([N+](=O)[O-])cc1)(C(F)(F)F)C(F)(F)F)c1ccc(F)cc1	i	-10.3%
Cc1ccc(N2CC(=O)N(NC(=O)Nc3ccc(Cl)c(Cl)c3)CC2=O)cc1	-11.3%	-10.6%
COc1ccc(CN2CCCC(n3cc(C(=O)N4CCCCC4)nn3)C2)c(OC)c1C (stereo not drawn)	-7.4%	7.1%
COc1ccccc1N(C(=O)CNC(=O)c1ccco1)C(C(=O)NCC1CCCO1)c1ccccc1 (stereo not drawn)	5.1%	-0.8%
CC(=O)n1cc([C@H]2C=C(C(=O)O)O[C@@H](OCCCCO)C2)c2ccccc21	-2.5%	-9.2%
O=C(O)c1ccc2c(c1)C(=O)N(c1ccccc1-c1ccccc1)C2=O	i	2.0%
CCCCN(CC)S(=O)(=O)c1ccc(C(=O)Nc2nnc(CSC)o2)cc1	?	-28.2%
CCOC(=O)c1ccc(NC(=S)NCCCn2ccnc2)cc1	-12.0%	-9.7%
CC(C)CSC1=NSC2=NC(=O)/C(=C\c3coc4ccccc4c3=O)C(=N)N12	-15.3%	23.1%
Cc1ccc(C(=O)N2CCN(c3ccc(F)cc3)CC2)cc1S(=O)(=O)N1CCCCC1	?	-15.7%
CC(C)=CC(=O)Nc1ccc(S(=O)(=O)Nc2onc(C)c2C)cc1	-15.4%	-13.5%
COc1cccc(-n2c(=O)c3sc4ccccc4c3n(CC(=O)Nc3ccc(F)cc3F)c2=O)c1	-21.7%	-18.2%
COc1ccc2nc(N/C(N)=N/C(=S)Nc3cccc(C)c3)nc(C)c2c1	·	-14.1%
COc1ccc(/C=N\NC(=O)COc2ccccc2)c(C(=O)O)c1OC	-1.3%	-13.7%
CCn1ncc(Cl)c1C(=O)NC(C)c1ccccc1 (stereo not drawn)	i	-5.0%
O=C(/C=C/c1ccc(Cl)cc1)NC(=S)Nc1ccccc1C(=O)O	-6.9%[7.34 µM]	0.0%[7.34 µM]
c1ccc2c(c1)Oc1ccccc1S2	-21.4%	-15.8%
O=C(/C=C/c1cccc([N+](=O)[O-])c1)OCC(=O)N1CCN(C(=O)c2ccco2)CC1	-6.7%	-22.5%
CCOC(=O)c1c(NC(=O)c2ccccc2C)sc2c1CCCC2	-5.2%[7.34 µM]	-1.9%[7.34 µM]
Cc1ccc(C(OCC(O)CNC(C)c2ccccc2)c2ccccc2)cc1 (stereo not drawn)	-26.7%	?
CC1(C)CC(N2CCC(=O)NC2=S)CC(C)(C)N1	i	-0.9%
CNC(=O)C(=O)Nc1c(O)c2ccccc2[nH]c1=O	i	-7.0%
O=C1C2C3C=CC(C3)C2C(=O)N1c1n[nH]c(CCc2ccccc2)n1 (stereo not drawn)	-18.2%	-5.9%
CCOC(=O)CSc1ccc2nnc(-c3cccs3)n2n1	-21.7%	-14.9%
(continued)
SMILES	Vaccinia mCherry	Vaccinia Venus
Cc1ccccc1NC(=O)CSCCN1C(=O)c2ccccc2C1=O	-5.7%	-13.9%
O=C(NCC(c1cccs1)N1CCOCC1)c1cc(=O)[nH]c2ccccc12 (stereo not drawn)	-20.2%	-0.9%
C=CCSc1nnc(NC(=O)Cn2cnc3c2c(=O)n(C)c(=O)n3C)s1	-4.9%	-0.9%
Cc1ccc(C(=O)NCCNc2nc3cc(C)c(C)cc3cc2C)cc1	-0.1%	-5.3%
O=C(COC(=O)c1ccc([N+](=O)[O-])s1)NC(c1ccccc1)c1ccccc1	-10.4%	-4.4%
O=C(Nc1ccc(Nc2ccccc2)cc1)C1CC1	-6.2%	-9.5%
O=C(O)c1cccc(S(=O)(=O)Nc2cccc(S(=O)(=O)Nc3ccc(Br)cc3)c2)c1	-6.2%	-2.4%
CCCN(CCC)Cc1c(C(=O)N/N=C/c2ccc(C)o2)nnn1-c1nonc1N	-23.4%	?
COC(=O)C1C(=O)C2=C(CC1C)NC(=O)CC2c1ccc(O)c(OC)c1 (stereo not drawn)	·	?
CN(C)S(=O)(=O)Oc1ccccc1C(=O)Nc1ccccc1Cl	-3.5%	-12.0%
CN1CCCC(OC(=O)COc2ccccc2)C1 (stereo not drawn)	20.4%	21.4%
CC(=O)N1CCc2cc(S(=O)(=O)NC(CC(C)C)C(=O)NCc3ccccc3)ccc21 (stereo not drawn)	-3.7%	3.3%
Cc1cc2nc(SCCN3CCOCC3)[nH]c2cc1C	·	-6.0%
COc1cccc(CSCC(=O)NCCc2ccccc2)c1OC	-19.3%	1.0%
Cc1ccc2c(C)c(C(=O)Nc3ccc(S(=O)(=O)Nc4onc(C)c4C)cc3)oc2c1	-4.9%	9.1%
Cn1c(=O)n(CCCOc2ccc(Br)cc2)c2ccccc21	·	-29.5%
CC1=C([N+](=O)[O-])C(c2ccc(O)c(O)c2)NC(=O)N1 (stereo not drawn)	-29.5%	-7.5%
O=C(NCC1(N2CCOCC2)CCCC1)c1cnn(-c2nccc(-c3ccco3)n2)c1C1CC1	-7.5%	0.4%
Cc1ccc(-c2noc(-c3cccnc3N(C)Cc3ccc(Cl)cc3)n2)cc1	-5.5%	5.2%
O=C(/C(Cl)=C/Nc1ccc(Br)cn1)C(F)(F)F	-22.2%	-21.3%
O=C(CCN1CCOCC1)NCC1COc2ccccc2O1 (stereo not drawn)	-12.7%	-8.8%
COCCn1c(SC(C)C(=O)NC2CCCCC2C)nc2ccccc2c1=O (stereo not drawn)	-9.6%	-6.1%
O=C1OC(Cc2ccccn2)C(O)=C1C1=NCCCN1 (stereo not drawn)	i	-2.6%
Cc1ccc(S(=O)(=O)Nc2ccc(Cl)cc2C(=O)c2ccccc2)cc1	-9.9%	-20.9%
CN(C)CCNC(=S)NC1CCCCC1	-6.2%	-11.1%

Quoted at random: 3 entries already listed
SMILES	Vaccinia mCherry	Vaccinia Venus
Cn1c(=O)n(CCCOc2ccc(Br)cc2)c2ccccc21	·	-29.5%
CC(=O)N1CCc2cc(S(=O)(=O)NC(CC(C)C)C(=O)NCc3ccccc3)ccc21 (stereo not drawn)	-3.7%	3.3%
Cc1ccc2c(C)c(C(=O)Nc3ccc(S(=O)(=O)Nc4onc(C)c4C)cc3)oc2c1	-4.9%	9.1%

Following part:
SMILES	Vaccinia mCherry	Vaccinia Venus
CCCC(=O)Nc1c(C)nn(C(=O)CCC)c1C	·	-12.8%
COc1ccc(-n2c(=O)c3ccc(C(=O)NCc4ccc(C)cc4)cc3n(CC(=O)Nc3ccc(F)cc3)c2=O)cc1	-8.9%	-8.8%
Cc1ccccc1C(=O)NCc1nc(-c2ccc(Cl)cc2)no1	-10.6%	-12.9%
CC(=O)c1cccc(NC(=O)Nc2ccccc2)c1	-10.5%	-14.6%
Cc1nc(OCc2c(C)noc2C)c2ccccc2n1	5.9%	4.1%
CCOC(=O)C1(CCCc2ccccc2)CCN(C(=O)[C@@H]2C[C@@H](C)NC(=S)N2)CC1	-3.6%	-12.2%
COC(=O)Cn1c(=NC(=O)c2ccc(S(=O)(=O)N3CCc4ccccc4C3)cc2)sc2cc(OC)ccc21	-4.5%	-19.0%
CC(=O)Nc1cccc(NC(=O)CSc2nc(=O)n(Cc3ccccn3)c3c2CCC3)c1	-7.9%	-3.9%
Cc1oc2ccc(NS(=O)(=O)c3ccc(F)cc3)cc2c1C(=O)O	-17.2%&-0.2%	-1.6%&6.2%
Cc1ccc(Cn2c(SCC(=O)N/N=C/c3ccc(C)o3)nc3ccccc32)cc1	-4.3%	8.8%
Cc1ccccc1NC(=S)NCCC(c1ccccc1)c1ccccc1	-13.6%	-18.6%
COc1ccc2c(c1)c1c(c(=O)n(Cc3ccccc3)c(=O)n1CC(=O)NCc1ccccc1Cl)n2C	1.3%	15.5%
COc1cccc(C2/C(=C(/O)c3cnn(-c4ccccc4)c3C)C(=O)C(=O)N2CCN(C)C)c1 (stereo not drawn)	·	-11.8%
O=C(Cc1cccs1)Nc1cccnc1	i	-5.6%
O=C(N1CCN(c2ccccc2)CC1)C12CC3CC(CC(C3)C1)C2	-0.9%	-18.4%
CCCOC(=O)c1ccccc1C(=O)OCCC	i	-12.4%
COC(=O)c1nn(-c2ccccc2)c(=O)cc1O	-3.5%	1.0%
O=C(Nc1ccc(F)c(Cl)c1)C1CC(=O)N(Cc2ccccc2)C1 (stereo not drawn)	-6.8%	-13.4%
Cc1ccc(OCCOCCn2c(-c3ccc(Cl)cc3)nc3ccccc3c2=O)cc1	-5.7%	0.5%
O=C(NN=C(c1ccccc1)c1ccccn1)c1ccccc1	2µM*	?
Cc1cccc(NC(=O)c2cc(-c3cccnc3)nc3c(C)cccc23)n1	?	?
Cc1nc(C)c(-c2csc(Nc3ccc(S(N)(=O)=O)cc3)n2)s1	-23.4%	-27.5%
Nc1ccc2c(c1)C(=O)c1ccccc1-2	?	-17.4%
COC(=O)c1ccccc1NC(=O)CN1CCC(n2nnc3cc(C(F)(F)F)ccc32)CC1	i	-6.8%
Cc1ccccc1-c1noc(-c2ccc(N3CCN(c4ccccc4)CC3)c([N+](=O)[O-])c2)n1	3.8%	-7.2%

Exported with values under each structure: part of the list above.
Values run as follows: Vaccinia mCherry, Vaccinia Venus
Cc1ccccc1-c1noc(-c2ccc(N3CCN(c4ccccc4)CC3)c([N+](=O)[O-])c2)n1
  3.8%, -7.2%
Cc1ccc(Cn2c(SCC(=O)N/N=C/c3ccc(C)o3)nc3ccccc32)cc1
  -4.3%, 8.8%
COC(=O)c1nn(-c2ccccc2)c(=O)cc1O
  -3.5%, 1.0%

(next part)
SMILES	Vaccinia mCherry	Vaccinia Venus
O=C(CSc1nnnn1-c1ccc2c(c1)OCCO2)N1CCc2ccccc21	-23.2%	-16.2%
COc1ccccc1NC(=O)C1CCN(S(=O)(=O)c2ccc3[nH]c4c(c3c2)CCCCC4)CC1	-15.7%	-9.0%
O=c1c2cc(Br)ccc2[nH]c(=S)n1Cc1cccnc1	1.2%	3.7%
CN(C)C1C(=O)C(C(N)=O)=C(O)[C@@]2(O)C(=O)C3=C(O)c4c(O)cccc4[C@](C)(O)C3C(O)C12 (stereo partly drawn)	-15.3%	-3.3%
O=C(Nc1ccn(CCCNC2CCN(Cc3ccccc3)CC2)c(=O)n1)OCc1ccccc1	-4.9%	-16.0%
CC(NS(=O)(=O)c1ccc(OCC(=O)NCc2cccnc2)cc1)c1ccccc1 (stereo not drawn)	i	-5.2%
COc1ccccc1CCNC1C2CC3CC(C2)CC1C3 (stereo not drawn)	-27.6%	-19.4%
Nc1cc(OC(=O)c2ccc(F)cc2)nn1S(=O)(=O)c1ccc(F)cc1	-24.2%	-16.8%
O=C(NCc1ccccc1)NC(=O)c1ccccc1	·	?
Cc1cccc(-c2nsc(SCC(=O)Nc3ccc4c(c3)OCO4)n2)c1	-4.6%	-14.3%
O=C(OCc1c(Cl)cccc1Cl)c1cccnc1	i	-11.6%
COc1cccc(/C=C/C(=O)OC(C)C(=O)Nc2c(C)n(C)n(-c3ccccc3)c2=O)c1 (stereo not drawn)	-20.0%	-7.8%
COc1ccc(C(C(=O)NC2CCCC2)N(Cc2ccccc2)C(=O)CNC(=O)c2ccco2)cc1 (stereo not drawn)	-5.7%	-13.8%
S=C1NC[C@H](c2ccccc2)N1CC1CCCCC1	i	-12.4%
CC(C)(C)c1ccc(CNc2cc(N3CCOCC3)ccc2[N+](=O)[O-])cc1	·	-29.3%
N/C(CSc1ncccc1C(F)(F)F)=N\O	-17.3%	-13.4%
Cc1cc(NC(=O)c2ccc(Cl)c([N+](=O)[O-])c2)no1	i	-19.6%
CC(CCc1ccc(O)cc1)N1CCC(Oc2ccc(C(=O)N3CCCC3)cc2)CC1 (stereo not drawn)	i	-8.8%
COc1ccc(NC(=S)Nc2ccc3cn[nH]c3c2)cc1	?	-1.9%
COc1ccc(N2CCN(CC(O)COc3ccccc3C(C)(C)C)CC2)cc1 (stereo not drawn)	-16.1%	11.2%
COc1ccc(NC(=O)CC2C(=O)N(Cc3ccccc3)C(=S)N2CCN2CCOCC2)cc1 (stereo not drawn)	-7.0%	-20.0%
COc1ccc(CC2(CO)CCN(Cc3ccc4nsnc4c3)CC2)cc1	?	-17.6%
CC[n+]1c(SC)ccc2cc(OC)ccc21	i	-7.8%
COc1ccc(C2=NN(CC(=O)Nc3ccccc3C)C(=O)CC2)cc1	-4.2%	5.0%
CC(C)CNC(=S)N1CCN(C(c2ccccc2)c2ccccc2)CC1	-16.7%	-8.2%

Molecules shown so far with bromine (four):
SMILES	Vaccinia mCherry	Vaccinia Venus
O=C(O)c1cccc(S(=O)(=O)Nc2cccc(S(=O)(=O)Nc3ccc(Br)cc3)c2)c1	-6.2%	-2.4%
Cn1c(=O)n(CCCOc2ccc(Br)cc2)c2ccccc21	·	-29.5%
O=C(/C(Cl)=C/Nc1ccc(Br)cn1)C(F)(F)F	-22.2%	-21.3%
O=c1c2cc(Br)ccc2[nH]c(=S)n1Cc1cccnc1	1.2%	3.7%

Following part.
SMILES	Vaccinia mCherry	Vaccinia Venus
CC(C)(C)OC(=O)NCCCCCNC(=O)c1ncn(Cc2ccccc2)c1C(=O)NCCCCCNC(=O)OC(C)(C)C	i	?
CC1CN(c2ccc(C(=O)c3ccccc3C(=O)O)cc2[N+](=O)[O-])CC(C)O1 (stereo not drawn)	i	-3.3%
O=c1[nH]c2cc3c(cc2cc1CN(CCCO)Cc1nnnn1Cc1ccc(F)cc1)OCO3	·	-11.5%
O=C1CCCN1CCCNc1nc(NCc2ccccc2)nc2ccsc12	?	-28.2%
CCc1ccc(C(=O)N2CCC(c3nc(-c4ccc(S(=O)(=O)N5CCCC5)cc4)no3)CC2)cc1	-9.8%	?
CC(=O)Nc1ccc2nc(-c3ccc(Br)o3)[nH]c2c1	-2.2%	-13.5%

Screening results deposited in PubChem by National Center for Advancing Translational Sciences (NCATS).
